ClpP mod – qHTS Assay for Activators of ClpP. ATP-dependent Clp protease proteolytic subunit (Bacillus subtilis (strain 168)), P80244. purified B. subtilis ClpP, FRET peptide cleavage, 20 min. Potency, µM (highest dose often 57.5 µM), for the others: top-dose activity change, negative = active. actives 1.9% (n = 340,000). AID 651965, 2013; active = well fitted falling curve with a large enough effect; inconclusive = small, poorly fitted or top-dose-only effect; inactive = no such curve, though single readings can be large or run the other way; note: potency is the fitted concentration of half-maximal effect; the source files actives as falling curves though it sought activators and does not explain the sign; nearly all actives have a fitted effect of over 65% in size; many hits overshoot -100%
Target sequence (P80244 whole entry, looked up): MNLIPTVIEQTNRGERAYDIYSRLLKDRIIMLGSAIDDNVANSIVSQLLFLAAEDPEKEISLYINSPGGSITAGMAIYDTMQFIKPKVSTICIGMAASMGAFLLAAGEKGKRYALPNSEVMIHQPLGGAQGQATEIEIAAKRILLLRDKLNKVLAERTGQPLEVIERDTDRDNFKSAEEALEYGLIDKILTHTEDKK
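FRET quenching reversal measured ClpP activation: 10 microg/mL B. subtilis ClpP at pH 8 with the FRET-FV decapeptide, read at 430 nm after 320 nm excitation. The 20-min minus 0-min signal was scaled between DMSO/no-enzyme wells and ADEP (5.8 microM final).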
gsp antag – qHTS for Antagonists of gsp, the Etiologic Mutation Responsible for Fibrous Dysplasia/McCune-Albright Syndrome: qHTS. gsp-mutant cells, cAMP HTRF, 30 min; control for the full effect not named in the record. Potency, µM (series often up to 76.9 µM), inactives show at the highest dose activity change, negative = inhibition, actives largely listed as inhibitors. actives 0.4% (n = 340,000). AID 624288, 2012; active = falling curve of any shape with a large fitted effect; inconclusive = falling curve, mostly with a smaller effect; inactive = flat or rising curve; cell line not stated here;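 note: intracellular cAMP measured with PDE inhibitor Ro 20-1724 present during compound exposure; potency is the fitted concentration of half-maximal effect; % is set by controls: 0 for no effect and ±100 for the full control effect; nearly all actives have a fitted effect of over 65% in size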
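G418-selected cells were plated in DMEM/10% FBS for 16-24 h at 37C, then treated with compounds plus the PDE inhibitor […] (300 uM solution added) for 30 min at 37C. Intracellular cAMP was measured by HTRF after 30 min lysis at room temperature.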
gsp agonist – qHTS for Agonist of gsp, the Etiologic Mutation Responsible for Fibrous Dysplasia/McCune-Albright Syndrome: qHTS; Potency, µM (doses to about 76.9 µM), inactives show at the top dose activation (cAMP increase), usual class: activators; actives 0.13% (n = 340,000); gsp mutant cells, cAMP HTRF, 30 min; control for the full effect not named in the record; AID 624287, 2012; active = well fitted activation curve with a large enough effect; inconclusive = small, poorly fitted or top-dose-only effect, or another doubt; inactive = no such curve, though single readings can be large or run the other way; cell line not stated here;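 note: phosphodiesterase inhibitor Ro 20-1724 added with compounds to block cAMP breakdown; potency is the fitted concentration of half-maximal effect; nearly all actives have a fitted effect of over 60% in size; about a fifth of the inactives were tested at one dose only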
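Cells stably selected in G418 were plated at 2000/well, grown 16-24 hr, then given compounds in DMSO with the PDE inhibitor […] (300 uM solution added) for 30 min at 37C; cAMP was read by HTRF.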
Menin-MLL FL inh – qHTS Assay for Inhibitors Targeting the Menin-MLL Interaction in MLL Related Leukemias: Competition With Fluorescein Labeled MLL-derived Peptide; Fluorescence polarization, fluorescein-MLL peptide displacement from menin; FP activity change, % at 61.4 µM; 290,000 tested, under 10 active; AID 1766, 2009; inconclusive = falling polarisation curve, or a change in total fluorescence; inactive = total fluorescence flat and polarisation flat or rising; no compound was filed as active; the % refers to the polarisation; negative = inhibition;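 note: % of control where 0% means no effect; inhibitors lower the polarisation; unlabelled MLL peptide was the positive control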
TRPML1 agonist – qHTS for Agonists of the Human Mucolipin Transient Receptor Potential 1 (TRPML1) | Mucolipin-1 (Homo sapiens), Q9GZU1 | TRPML1-expressing cells, Ca2+ dye fluorescence, FDSS; host cell line not named in the record; reference of the full effect not given here | activation, % (no concentration beside the values) | actives 0.12% (n = 410,000); in the data active = activation above about 50%; inconclusive = about 30% to 50%; inactive = below about 30%; note: 0% is about no effect; the text of the record puts the active cut at 80%
Target sequence (Q9GZU1 whole entry, looked up): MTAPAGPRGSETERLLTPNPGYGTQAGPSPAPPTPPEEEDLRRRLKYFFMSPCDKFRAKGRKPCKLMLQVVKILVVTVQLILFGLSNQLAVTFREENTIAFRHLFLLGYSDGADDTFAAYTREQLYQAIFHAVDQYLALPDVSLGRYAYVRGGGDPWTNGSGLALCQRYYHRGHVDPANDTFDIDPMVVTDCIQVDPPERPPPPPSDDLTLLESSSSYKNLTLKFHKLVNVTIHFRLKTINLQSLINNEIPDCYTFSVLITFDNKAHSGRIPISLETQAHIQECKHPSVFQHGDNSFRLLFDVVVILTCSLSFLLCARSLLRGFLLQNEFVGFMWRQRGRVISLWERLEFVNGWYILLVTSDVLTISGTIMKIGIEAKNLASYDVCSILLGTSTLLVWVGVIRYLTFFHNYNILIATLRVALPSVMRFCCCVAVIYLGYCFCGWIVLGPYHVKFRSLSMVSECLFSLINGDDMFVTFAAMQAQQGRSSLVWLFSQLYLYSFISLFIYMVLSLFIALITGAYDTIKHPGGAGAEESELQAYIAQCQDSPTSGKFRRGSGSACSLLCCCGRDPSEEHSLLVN
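Kinetic FDSS Ca2+ read in Tet-induced TRPML1-DL cells (ABD Ca8 dye plus quencher, 45-90 min RT loading): baseline, then compound, then 110 s agonist window; EC80 agonist 54-4 at 4uM final added afterwards for a 110 s antagonist window.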
TRPML1 inh – qHTS for Inhibitors of the Human Mucolipin Transient Receptor Potential 1 (TRPML1); TRPML1-inducible cells, Ca2+ dye fluorescence, FDSS; stronger effect = lower value; inhibition of EC80 agonist-evoked calcium signal; activity change, negative = inhibition, % (test concentration not listed); Mucolipin-1 (Homo sapiens), Q9GZU1; actives 0.02% (n = 390,000); in the data active means activity change below about -50%; inconclusive means about -30% to -50%; inactive means above about -30%;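 note: stimulus is agonist 54-4 at its EC80 concentration; % is set by controls: 0 for no effect and ±100 for the full control effect; compound concentration not given in the record; the text of the record puts the active cut at -80%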
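TRPML1-DL cells, Tet-induced overnight (~16 h, 37 °C) at 1,500 cells/well, were loaded with Ca8 no-wash dye plus quencher for 45-90 min at room temperature. Compounds were pinned during FDSS kinetic reading; agonist 54-4 at EC80 (4 uM final) then added.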
Starred values were filed as active, the others as inactive; ? = inconclusive; / = no result given; & = joins results of further samples; [ ] = another dose, or the depositor's remark.

SMILES	ClpP mod	gsp antag	gsp agonist	Menin-MLL FL inh	TRPML1 agonist	TRPML1 inh
CC1CN(C(=O)N2CCC(C(=O)N3CCN(c4ccccc4)CC3)CC2)c2cc(Cl)ccc2O1 (stereo not drawn)	-0.8%	/	/	/	1.4	14
CCc1cc(=O)[nH]c(SCCC(F)=C(F)F)n1	/	0%	-6%[15.4 µM]	2.5	-0.4	-8
COc1ccc(OCc2nn3c(-c4cccc(OC)c4)nnc3s2)cc1	-1.6%	8%	7%	1.6	4.6	9
Cc1cnc(C(=O)OCc2ccc(Br)cc2)cn1	/	2%	0%[15.4 µM]	0.9	-0.4	1
O=C(O)CN=C(NS(=O)(=O)c1ccc(Cl)cc1)c1ccc(F)cc1	/	/	-6%[15.4 µM]	-5.2	0.4	-24
CCN(c1ccccc1)c1nnc(NC(=O)Nc2ccc(Br)cc2)s1	0.3%	/	/	/	-0.5	-15
CCOc1ccc(S(=O)(=O)N2CCOCC2)cc1NC(=O)CN1C(=O)NC(C)(c2ccc(C)cc2)C1=O (stereo not drawn)	-7.2%	-8%	0%	/	-1.1	0
COc1ccc(C)cc1NC(=O)N1CCCn2nc(C)cc21	-1.6%	/	/	/	-0.1	-1
O=C(Nc1ccccc1)c1cccc(-c2nnc(-c3ccccc3)o2)c1	-0.4%	-2%	27%	5.9	-1.2	-21
O=C(COC(=O)c1ccc(O)cc1)Nc1cc(C(F)(F)F)ccc1N1CCOCC1	-3.0%	-1%	10%	/	-0.2	22
Cc1cc(Cl)ccc1OCCSc1nnc(-c2cccs2)o1	?	/	/	/	4.5	24
CCCNc1nc(-c2cc(C(=O)Nc3ccccc3)on2)cc(C(C)C)n1	-24%	-11%	/	/	1.1	-5
CCn1c(SCC(=O)Nc2ccc(C)cc2)nc2nc3c(cc2c1=O)CCCC3	-0.9%	-11%	8%	-3.9	0.7	16
CC1CN(Cc2csc(-c3ccc(Cl)cc3)n2)CC(C)O1 (stereo not drawn)	/	3%	12%	1.3	0.0	28
CC1=C(C(=O)N2CCN(c3cc(C)ccc3C)CC2)C2(CCCCC2)OC1=O	-0.4%	8%	-3%	2.3	0.2	-16
COc1ccc(C2=NN(CC(=O)NCCc3ccccc3)C(=O)CC2)cc1	-1.9%	/	/	/	0.6	6
COc1cccc(-c2nnc(NC(=O)c3ccccc3Br)o2)c1	2.0%	?	43%	1.8	-1.1	-3
O=C(NCCC1=CCCCC1)C1CC(=O)N(C2CCCCC2)C1 (stereo not drawn)	2.3%	0%	-51%[inhibitor]	2.7	0.0	0
OCCCc1cn(CC2CCCCC2)nn1	1.2%	8%	21%	-1.2	-0.3	-10
O=C(Nc1ccc(F)cc1)Nc1ccc2ccccc2n1	-0.9%	12%	?	1.1	-0.6	5
O=C(Nc1ccc(Nc2ccccc2)cc1)c1ccc(Cl)cc1	-2.3%	-10%	-26%	/	-1.1	9
COC(=O)Cn1nc(-c2ccccc2)n(-c2ccccc2)c1=S	0.9%	-10%	?	3.6	0.1	-5
COc1cccc(CNC(=O)CCS(=O)(=O)c2ccc3c(c2)NC(=O)CO3)c1	/	15%	-17%	/	-0.6	2
O=C(Nc1ccc(-n2cccn2)cc1)C1CCN(Cc2ccccn2)CC1	0.7%	4%	?	0.7	0.9	-10
CC(C)NC(=O)c1n[nH]c(=O)c2ccccc12	-1.5%	8%	-23%	3.0	3.2	-9
COc1ccccc1CNC(=O)CSc1ccc(-c2ccncc2)nn1	0.9%	-3%	-6%	5.5	-0.7	13
CN1CCN(CCc2cn3ncc(C#N)c3nc2-c2ccc(F)cc2)CC1	/	-29%	4%[15.4 µM]	-10	-1.0	-3
COc1ccccc1N=c1sc2ccccc2n1C	-0.4%	-9%	-36%[inhibitor]	-7.0	0.1	0
CCCCOc1cccc(C(=O)N(Cc2ccc(C)o2)c2ccccn2)c1	1.7%	/	/	/	0.0	-17
CN1CC(c2ccccc2)C2(SC(=S)N(Cc3ccco3)C2=O)C12C(=O)Nc1ccccc12 (stereo not drawn)	-3.1%	-5%	-20%	-0.5	3.8	28
COc1ccc(NC(=O)CN(c2ccc(Cl)cc2)S(C)(=O)=O)cc1OC	0.7%	6%	20%	2.3	0.7	7
CCOc1ccccc1NC(=O)Cc1cccs1	/	4%	-15%	6.5	0.1	-2
COc1ccc(Cl)cc1NC(=S)NCc1ccccn1	-1.5%	7%	-35%[inhibitor]	5.5	-0.7	-5
CC1Sc2ccccc2N(CC(=O)N(C(C)C)C(C)C)C1=O (stereo not drawn)	2.3%	8%	0%	-2.9	2.8	1
CN(c1ccccc1)S(=O)(=O)c1nnc(NC(=O)C2CCCCC2)s1	-3.8%&-2.4%	7%	0%	-1.9	0.4&0.8	5&33
C/C(=N\NC(=O)COc1ccccc1F)c1cc2ccccc2o1	1.4%	4%	-9%	4.7	3.4	-12
COCc1nnc(NS(=O)(=O)c2ccc([N+](=O)[O-])cc2)s1	-1.4%	3%	8%	1.5	0.4	-9
Cc1cccc(-n2ncc3c(N4CCC5(CC4)OCCO5)ncnc32)c1	-28%	0%	9%	?	-0.4	12
CNC(=O)COc1coc(CN2CCN(c3ccccc3F)CC2)cc1=O	2.1%	12%	5%	/	-0.6	25
Cc1ccc(S(=O)(=O)Nc2cccc(C(=O)NCC(c3ccccc3)N(C)C)c2)cc1F (stereo not drawn)	/	-5%	-9%[15.4 µM]	/	0.6	18

Record cards (already shown). Values in the order: ClpP mod, gsp antag, gsp agonist, Menin-MLL FL inh, TRPML1 agonist, TRPML1 inh
Results for O=C(Nc1ccc(-n2cccn2)cc1)C1CCN(Cc2ccccn2)CC1 → 0.7%, 4%, ?, 0.7, 0.9, -10
Results for COc1ccccc1CNC(=O)CSc1ccc(-c2ccncc2)nn1 → 0.9%, -3%, -6%, 5.5, -0.7, 13

Other records follow:
SMILES	ClpP mod	gsp antag	gsp agonist	Menin-MLL FL inh	TRPML1 agonist	TRPML1 inh
Cc1ccc(-n2ncc(C(=O)N3CCN(Cc4ccccc4)CC3)c2C2CCN(C(=O)OC(C)(C)C)CC2)c(C)c1	0.0%	/	/	/	0.9	-8
COc1cccc(C(=O)N2CCN(C(=O)C3COc4ccccc4O3)CC2)c1 (stereo not drawn)	-0.7%	0%	-1%	/	-0.2	-4
Cc1cc(C)cc(NC(=S)N2CCN(S(=O)(=O)c3ccccc3)CC2)c1	-2.0%	-10%	-20%	/	1.8	-14
Clc1ccc(CCNc2nc3ccccc3c3nc(-c4ccccc4)nn23)cc1	-3.4%	/	/	/	-0.8	7
COc1ccc(CCN(C)C(=O)C2CCN(Cc3cccc(OC)c3OC)CC2)cc1OC	-0.2%	-4%	12%[15.4 µM]	-5.5	-0.2	38
Cc1cc(Cl)ccc1C1=CC(=O)C[C@H](c2ccc(F)cc2)C1	0.0%	5%	/	/	4.1	32
O=S(=O)(NCc1ccco1)N1CCCCCC1	0.6%	7%	1%	2.3	1.4	-6
COc1ccc(-c2csc(NC(=O)CSc3n[nH]c(N)n3)n2)cc1	0.0%	-7%	12%[15.4 µM]	1.9	-1.4	-1
CC(=O)c1cccc(NC(=O)C2CCCN2S(=O)(=O)c2cccs2)c1 (stereo not drawn)	-4.9%	/	-6%	/	0.8	-2
Cc1ccc(OC(=S)Nc2ccc(F)cc2)cc1	0.1%	18%	-11%	4.3	-0.2	6
CCc1ccc(NC(=O)CSc2nc3n[nH]c(C)c3c(=N)n2-c2ccc(C)cc2)cc1	?	/	/	/	1.2	-11
COc1cc(CN2CCC(n3nccc3NC(=O)c3ccc4c(c3)OCO4)CC2)ccc1O	1.0%	11%	-7%[15.4 µM]	1.0	0.5	-16
N#Cc1ccsc1NC(=O)CSc1nncs1	0.3%	5%	-6%	/	2.9	-2
N/C(=N/OC(=O)c1ccccc1Cl)c1nonc1N	/	1%	-3%	0.3	0.6	27
COCc1c(C(=O)N/N=C(/C)c2ccccc2)nnn1-c1nonc1N	-0.5%	5%	7%	5.6	-0.3	-1
COc1ccc(CCNC(=O)/C=C/C(=O)O)cc1OC	0.3%	8%	-63%[inhibitor]	1.2	1.5	-12
CCCC(O)(CCC)C(=O)NN(C(=O)CCl)c1cccc(C)c1	/	0%	-2%[15.4 µM]	-0.9	-0.7	0
COc1cccc(-c2nc(CS(=O)(=O)CC(=O)NCCCc3ccccc3)c(C)o2)c1	-15%&-6.0%	-7%	?	-8.0	0.8&1.3	-2&-12
CC(C)(C)c1ccc(-c2noc(CCC(=O)NCc3ccco3)n2)cc1	/	-10%	0%[15.4 µM]	-1.2	4.5	9
Cc1cccc(NC(=S)N2CCCCCC2)c1	-0.3%	15%	5%	1.4	1.7	-9
O=C(NC1CCCCC1)C(c1ccc(Cl)cc1)N1CCC2(CC1)OCCO2 (stereo not drawn)	-0.5%	2%	-20%	0.5	-0.7	-8
O=C(CSc1nc2nc3c(cc2c(=O)n1-c1ccccc1)CCCC3)Nc1ccccc1	18%	7%	-4%	4.5	1.2	7
COc1cccc(/C=N/NC(=O)c2ccccc2N(Cc2ccccc2)S(=O)(=O)c2ccccc2)c1OC	-17%	-10%	-13%	-1.7	0.2	3
O=C(O)c1ccc([N+](=O)[O-])cc1	0.6%	8%	-70%[inhibitor]	/	-0.3	-11
CCc1ccccc1NC(=O)CN1C(=O)c2cccnc2Sc2ccccc21	-6.4%	/	/	/	0.1	-24
COc1cccc(C(=O)Nc2nc(-c3nnn(-c4ccccc4C(F)(F)F)c3C)ns2)c1	-0.9%	/	/	/	1.5	22
O=C(COC(=O)c1cncc(Br)c1)NCc1ccc(F)cc1	0.5%	10%	?	-0.3	-0.1	-8
COc1ccccc1-c1ccc(SCC(=O)NCCc2ccccc2)nn1	1.5%	-35%	8%[15.4 µM]	-3.9	1.9	-5
CC(C)(C)c1ccc(C(=O)N2CCN(c3ncccn3)CC2)cc1	-9.2%	13%	5%	2.6	-0.5	14
CCOC(=O)c1cc(-c2csc(N/N=C/c3ccccc3Cl)n2)on1	1.2%	-11%	-13%[15.4 µM]	2.4	-0.7	2
COc1ccc(N2CCN(C(=O)C3Cc4ccccc4CN3C(=O)c3ccccc3)CC2)cc1 (stereo not drawn)	/	-15%	-7%[15.4 µM]	2.3	-1.4	16
CN(C)S(=O)(=O)NCCNC(=O)c1cc(OCC(F)(F)F)ccc1OCC(F)(F)F	/	-4%	-4%[15.4 µM]	0.6	0.4	-8
Cc1ccc(Nc2nc(CSc3nnc(-c4ccncc4)n3C)cs2)cc1	-1.5%	0%	21%[15.4 µM]	15	0.5	-11
